High-throughput results as filed in PubChem BioAssay.
NOMO-1 viab: STK33 inhibitor candidate reducing NOMO-1 cell viability; NOMO-1 AML viability, CellTiter-Glo luminescence, 72 h; inhibition, % (test concentration not listed); 7.5% of 37,000 active; AID 2330;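 active = most replicates above 80%; inconclusive = exactly half above 80%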;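 also: wells of about 30 µL received 25 nL stock; 0% = median of vehicle wells and 100% = reference inhibitor level; the first replicate is given; inactives centre near 10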
Numbers without * were called inactive; ? = inconclusive. The list is partial; count on the stated rates, not on these rows.

Molecule	NOMO-1 viab
C[C@H]1CN([C@@H](C)CO)C(=O)c2cc(NS(=O)(=O)c3cccs3)ccc2O[C@H]1CN(C)Cc1ccc(C(=O)O)cc1	10
Cc1noc(C)c1NC(=O)Nc1ccc2c(c1)C(=O)N([C@H](C)CO)C[C@@H](C)[C@@H](CN(C)S(=O)(=O)c1cccs1)O2	16
C[C@@H]1CN([C@H](C)CO)C(=O)c2cccc(NC(=O)Nc3ccc(F)cc3)c2O[C@@H]1CN(C)CC1CC1	-7
C[C@H]1CN([C@@H](C)CO)C(=O)c2cccc(NS(=O)(=O)c3ccc(F)cc3)c2O[C@@H]1CN(C)Cc1ccc(Cl)c(Cl)c1	5
COc1ccc(NC(=O)CSc2cc(C)c3cccc(C)c3n2)cc1	105*
Cn1nnnc1SCC(=O)Nc1ccc(Br)cc1Cl	6
Cc1onc(-c2c(Cl)cccc2Cl)c1C(=O)N=S(C)(C)=O	17
C[C@@H]1CN([C@H](C)CO)C(=O)c2cccc(NS(=O)(=O)c3cn(C)cn3)c2O[C@@H]1CN(C)C	6
C[C@H]1CN([C@@H](C)CO)C(=O)c2cc(NC(=O)Nc3ccc(F)cc3)ccc2O[C@@H]1CN(C)S(=O)(=O)c1ccccc1	33
O=C(Cn1cnc2ccccc2c1=O)Nc1ccccc1[N+](=O)[O-]	12
C[C@H]1CN([C@@H](C)CO)C(=O)Cc2cc(NC(=O)c3ccncc3)ccc2O[C@H]1CN(C)C	-10
CC(CCO)Nc1nc2c([nH]1)c(=O)n(C)c(=O)n2C (configuration not stated)	16
CC(C)NC(=O)Nc1ccc2c(c1)C(=O)N([C@H](C)CO)C[C@H](C)[C@H](CN(C)Cc1ccc(Cl)c(Cl)c1)O2	52
COC(=O)C1=C(NC(=O)c2ccc(S(=O)(=O)N3CCOCC3)cc2)CCS1	31
Cc1noc(C)c1NC(=O)Nc1ccc2c(c1)C(=O)N([C@H](C)CO)C[C@H](C)[C@@H](CN(C)C(=O)NC1CCCCC1)O2	33
COc1ccccc1-c1nnc(SCC(=O)Nc2ccccc2-c2ccccc2)n1C	27
C[C@H]1CN([C@@H](C)CO)C(=O)c2cc(NC(=O)Cc3cn(C)c4ccccc34)ccc2O[C@@H]1CN(C)Cc1ccc2c(c1)OCO2	98*
Cc1noc(C)c1NC(=O)N(C)C[C@@H]1Oc2ccc(NC(=O)Cn3cnnn3)cc2C(=O)N([C@H](C)CO)C[C@H]1C	-23
COc1ccc(NC(=O)N(C)C[C@@H]2Oc3ccc(NS(=O)(=O)c4cccs4)cc3CC(=O)N([C@H](C)CO)C[C@H]2C)cc1	-2
C[C@@H]1CN([C@@H](C)CO)C(=O)c2cccc(NC(=O)c3ccc(-c4nccs4)cc3)c2O[C@H]1CN(C)CC1CC1	33
C[C@@H]1CN([C@H](C)CO)C(=O)Cc2cc(NC(=O)c3ccncc3)ccc2O[C@H]1CN(C)Cc1ccc(C(F)(F)F)cc1	16
C[C@H](CO)N1C[C@H](C)[C@H](CN(C)Cc2ccc(C(F)(F)F)cc2)Oc2ccc(NC(=O)Nc3ccccc3)cc2CC1=O	86*
CCc1nc(SCC(=O)N(c2ccccc2)c2ccccc2)n[nH]1	30
C[C@@H]1CN([C@H](C)CO)C(=O)c2cc(NC(=O)Cc3ccccc3)ccc2O[C@@H]1CN(C)C(=O)Nc1ccc2c(c1)OCO2	12
CC1=CC(/C=C(\C)CCC(O)C(O)/C=C/C(=O)O)C2(O)C(=O)NC(CC(C)C)C2C1C (configuration not stated)	15
C[C@@H]1CN([C@@H](C)CO)C(=O)c2cccc(N(C)C)c2O[C@@H]1CN(C)C(=O)Nc1cccc2ccccc12	50
COc1ccc(S(=O)(=O)Nc2ccc3c(c2)C(=O)N([C@@H](C)CO)C[C@@H](C)[C@@H](CN(C)S(=O)(=O)c2cccs2)O3)cc1	28
C[C@H]1CN([C@@H](C)CO)C(=O)c2cccc(NC(=O)Nc3cccc4ccccc34)c2O[C@H]1CN(C)C(=O)Nc1ccc(F)cc1	87*
COc1ccc(NC(=O)N(C)C[C@H]2Oc3ccc(NC(=O)c4ccncc4)cc3C(=O)N([C@H](C)CO)C[C@@H]2C)cc1	4
COc1ccccc1C(=O)Nc1sc2c(c1C(=O)NCc1ccco1)CCCC2	91*
CC(C)NC(=O)N(C)C[C@@H]1Oc2ccc(NC(=O)Cc3ccccc3)cc2CC(=O)N([C@@H](C)CO)C[C@@H]1C	-7
Clc1ccc2nc(SCc3csc(Nc4ccccc4)n3)oc2c1	36
Cc1ccc(S(=O)(=O)N(C)C[C@H]2Oc3ccc(NC(=O)Nc4ccc5c(c4)OCO5)cc3C(=O)N([C@@H](C)CO)C[C@@H]2C)cc1	9
COC(=O)c1cc(N2C(=O)C3C4C=CC(C)(O4)C3C2=O)ccc1Cl (configuration not stated)	113*
Cc1ccc(S(=O)(=O)N(C)C[C@H]2Oc3ccc(NC(=O)CCCCCC(=O)Nc4ccccc4N)cc3CC(=O)N([C@H](C)CO)C[C@H]2C)cc1	32
C[C@@H]1CN([C@@H](C)CO)C(=O)Cc2cc(NC(=O)CCCCCC(=O)Nc3ccccc3N)ccc2O[C@@H]1CN(C)Cc1ccncc1	34
Cc1noc(C)c1NC(=O)N(C)C[C@H]1Oc2ccc(NS(=O)(=O)c3ccccc3)cc2C(=O)N([C@@H](C)CO)C[C@H]1C	-14
Cc1cc(C(F)(F)F)nn1CCCNC(=O)c1cccs1	8
Cc1cc(C)c2nc(-c3ccccn3)cc(C(=O)NCc3ccc(S(N)(=O)=O)cc3)c2c1	113*
COc1ccc(CN(C)C[C@@H]2Oc3ccc(NS(=O)(=O)c4ccc(OC)cc4)cc3CC(=O)N([C@H](C)CO)C[C@@H]2C)cc1	45
C[C@@H]1CN([C@H](C)CO)C(=O)c2cc(NS(C)(=O)=O)ccc2O[C@@H]1CN(C)C(=O)Nc1ccc2c(c1)OCO2	26
C[C@H]1CN([C@@H](C)CO)C(=O)c2cc(NC(=O)c3ccncc3)ccc2O[C@H]1CN(C)C	-23
CCc1c(C)sc(NC(=O)/C=C/c2ccc(F)cc2)c1C(=O)OC	52
O=Cc1c2[nH]c3ccccc3c2cc2[nH]c3ccccc3c12	25
C[C@@H]1CN([C@H](C)CO)C(=O)Cc2cc(NC(=O)Nc3ccc(C(F)(F)F)cc3)ccc2O[C@H]1CN(C)Cc1ccc(Cl)c(Cl)c1	31
O=C(COc1ccccc1C(=O)Nc1ccccc1)Nc1ccc([N+](=O)[O-])cc1	15
CCOC(=O)c1c(NC(=O)C2CC(c3cccc(Br)c3)=NO2)sc(C(=O)OC)c1C (configuration not stated)	6
CCOC(=O)CSc1nc(N)nc(C)c1Cl	45
CSc1ccccc1NC(=O)Cn1c([N+](=O)[O-])cnc1C	18
C[C@@H]1CN([C@H](C)CO)C(=O)c2cc(NC(=O)NC3CCCCC3)ccc2O[C@H]1CN(C)Cc1ccc(Cl)c(Cl)c1	46

Individual results from the list:
`C[C@@H]1CN([C@H](C)CO)C(=O)c2cc(NS(C)(=O)=O)ccc2O[C@@H]1CN(C)C(=O)Nc1ccc2c(c1)OCO2` in NOMO-1 viab shows 26
`C[C@@H]1CN([C@H](C)CO)C(=O)Cc2cc(NC(=O)Nc3ccc(C(F)(F)F)cc3)ccc2O[C@H]1CN(C)Cc1ccc(Cl)c(Cl)c1` in NOMO-1 viab shows 31

The list goes on.
Molecule	NOMO-1 viab
O=C(Cn1ccc([N+](=O)[O-])n1)NCc1ccccn1	2
C/C1=C/C[C@]2(C)C(=O)C(=O)C([C@H](C)CO)[C@H]2C/C=C(/C)[C@@H](O)CC/C(C)=C\CC1 (some centres not stated)	29
Cc1ccc2c(c1)c1c(n2CC(O)CO)C(=O)CCC1 (configuration not stated)	-8
CN(C)c1ccc2nc3c(nc2c1)C(=O)c1ccccc1C3=O	?
C[C@@H]1CN([C@H](C)CO)C(=O)c2cccc(NC(=O)NC3CCCCC3)c2O[C@@H]1CN(C)Cc1ccc(-c2ccccc2)cc1	37
C[C@@H]1CCCCO[C@H](CN(C)Cc2ccc(C(F)(F)F)cc2)[C@@H](C)CN([C@H](C)CO)C(=O)c2cc(NC(=O)c3ccncc3)ccc2O1	18
COc1ccc(OC)c(NC(=O)CN(C)S(=O)(=O)c2c(C)cc(C)cc2C)c1	-1
CC(C)NC(=O)Nc1ccc2c(c1)C(=O)N([C@H](C)CO)C[C@@H](C)[C@H](CN(C)Cc1ccc(Cl)c(Cl)c1)O2	44
C[C@H](CO)N1C[C@H](C)[C@H](CN(C)C(=O)Nc2ccccc2)Oc2ccc(NC(=O)Cn3cnnn3)cc2C1=O	-8
COc1ccccc1NC(=O)COc1ccc(C(=O)O)cc1OC	-22
Cc1ccc(NC(=O)CN(c2ccc(Cl)c(C(F)(F)F)c2)S(C)(=O)=O)cc1	91*
COc1ccc(NC(=O)Nc2cccc3c2O[C@H](CN(C)C(=O)Nc2ccc(F)cc2)[C@@H](C)CN([C@H](C)CO)C3=O)cc1	-5
C[C@H](CO)N1C[C@H](C)[C@@H](CN(C)Cc2ccc(C(=O)Nc3ccccc3N)cc2)Oc2c(NC(=O)c3cnccn3)cccc2C1=O	118*
COc1ccc(S(=O)(=O)N(C)C[C@@H]2Oc3c(NC(=O)Nc4cccc5ccccc45)cccc3C(=O)N([C@H](C)CO)C[C@@H]2C)cc1	7
C[C@H]1CN([C@@H](C)CO)C(=O)c2cccc(N(C)C)c2O[C@H]1CN(C)C(=O)Nc1ccc(F)cc1	19
C[C@@H]1CN([C@@H](C)CO)C(=O)c2cccc(NC(=O)CCCCCC(=O)Nc3ccccc3N)c2O[C@@H]1CN(C)S(=O)(=O)c1cn(C)cn1	21
C[C@H]1CN([C@@H](C)CO)C(=O)c2cc(NC(=O)Nc3cccc4ccccc34)ccc2O[C@H]1CN(C)Cc1ccc(Cl)c(Cl)c1	?
O=C(Cn1cnc2ccccc2c1=O)Nc1ccccc1Cl	-2
C[C@H]1CN([C@@H](C)CO)C(=O)Cc2cc(NC(=O)Cc3ccccc3)ccc2O[C@@H]1CN(C)Cc1ccc(Cl)c(Cl)c1	97*
C[C@H]1CN([C@@H](C)CO)C(=O)Cc2cc(NS(=O)(=O)c3cccs3)ccc2O[C@@H]1CN(C)C(=O)Nc1ccc(C(F)(F)F)cc1	6
CC12CCC(=O)C=C1CCC1(C)C2(C)CCC2(C)C(C(=O)CO)CCC21C (configuration not stated)	94*
CSc1nnc(Cc2ccccc2)c(=O)[nH]1	32
CC(C)NC(=O)N(C)C[C@@H]1Oc2ccc(NC(=O)Nc3ccc(F)cc3)cc2C(=O)N([C@H](C)CO)C[C@H]1C	11
COc1ccc(S(=O)(=O)Nc2ccc3c(c2)C(=O)N([C@@H](C)CO)C[C@@H](C)[C@@H](CN(C)CC2CC2)O3)cc1	-12
COc1ccc(CN(C)C[C@H]2Oc3c(NC(=O)C4CCOCC4)cccc3C(=O)N([C@@H](C)CO)C[C@@H]2C)cc1	10

Part of the list above in order of formula weight, rising:
Molecule	NOMO-1 viab
CSc1ccccc1NC(=O)Cn1c([N+](=O)[O-])cnc1C	18
COc1ccc(OC)c(NC(=O)CN(C)S(=O)(=O)c2c(C)cc(C)cc2C)c1	-1
C[C@@H]1CN([C@@H](C)CO)C(=O)c2cccc(N(C)C)c2O[C@@H]1CN(C)C(=O)Nc1cccc2ccccc12	50

Continuation.
Molecule	NOMO-1 viab
C[C@@H]1CN([C@@H](C)CO)C(=O)c2cccc(NS(=O)(=O)c3ccc(F)cc3)c2O[C@@H]1CN(C)S(=O)(=O)c1ccc(F)cc1	71
C[C@H](CO)N1C[C@H](C)[C@H](CN(C)S(C)(=O)=O)Oc2ccc(NS(=O)(=O)c3ccccc3)cc2C1=O	9
O=C(CCCN1C(=O)c2ccccc2C1=O)Nc1ccc(Nc2ccccc2)cc1	102*
COc1ccc(C(=O)N(CC#N)CC#N)cc1	-20
C[C@@H]1CN([C@@H](C)CO)C(=O)c2cc(NC(=O)C3CC3)ccc2O[C@H]1CN(C)S(=O)(=O)c1ccc(F)cc1	2
CC/C=C\C/C=C\C/C=C\C/C=C\C/C=C\C/C=C\CCC(=O)O	6
C[C@@H]1CN([C@@H](C)CO)C(=O)Cc2cc(NC(=O)Cn3cnnn3)ccc2O[C@@H]1CN(C)Cc1ccncc1	-19
C[C@@H]1CN([C@H](C)CO)C(=O)c2cccc(NS(=O)(=O)c3cn(C)cn3)c2O[C@@H]1CN(C)Cc1ccc(C(F)(F)F)cc1	-20
C[C@@H]1CCCCO[C@H](CN(C)Cc2ccc(Cl)c(Cl)c2)[C@@H](C)CN([C@H](C)CO)C(=O)c2cc(NS(=O)(=O)c3ccccc3)ccc2O1	70
Cc1cc(OC(=O)C2COc3ccccc3O2)cc(C)c1Cl (configuration not stated)	19
Cc1noc(C)c1S(=O)(=O)Nc1cccc2c1O[C@H](CN(C)Cc1ccc(Cl)c(Cl)c1)[C@H](C)CN([C@@H](C)CO)C2=O	23
O=C(CC1NCCNC1=O)Nc1ccccc1Cl (configuration not stated)	22
C[C@@H]1CN([C@H](C)CO)C(=O)c2cc(NC(=O)Cn3cnnn3)ccc2O[C@@H]1CN(C)Cc1ccc2c(c1)OCO2	0
C[C@@H]1CN([C@@H](C)CO)C(=O)c2cc(NS(=O)(=O)c3cccs3)ccc2O[C@H]1CN(C)Cc1ccc(Oc2ccccc2)cc1	51
CC1(C)CC(O)CC2(C)OC(=O)C=C12 (configuration not stated)	37
Cc1sc2ncnc(SCC(=O)Nc3ccccc3)c2c1-c1ccccc1	27

Retrieved by compound from the list above (four):
Molecule	NOMO-1 viab
Cc1sc2ncnc(SCC(=O)Nc3ccccc3)c2c1-c1ccccc1	27
O=C(CC1NCCNC1=O)Nc1ccccc1Cl (configuration not stated)	22
C[C@@H]1CN([C@@H](C)CO)C(=O)Cc2cc(NC(=O)Cn3cnnn3)ccc2O[C@@H]1CN(C)Cc1ccncc1	-19
C[C@@H]1CCCCO[C@H](CN(C)Cc2ccc(Cl)c(Cl)c2)[C@@H](C)CN([C@H](C)CO)C(=O)c2cc(NS(=O)(=O)c3ccccc3)ccc2O1	70
